Source: PubChem (National Center for Advancing Translational Sciences (NCATS))
RE007 growth inh: less growth of the S. pombe RE007 Vpr strain | S. pombe RE007 Vpr strain, BacTiter-Glo ATP luminescence, 24 h; control for the full effect not named in the record | Potency, µM (doses to about 92.2 µM), inactives show top-dose activity change, negative = less growth | 360,000 tested, 0.21% active; active = well fitted falling curve with a large enough effect; inconclusive = small, poorly fitted or top-dose-only effect; inactive = no such curve, though single readings can be large or run the other way;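 also: % is scaled to controls: 0 for no effect and ±100 for the full control effect; nearly all actives have a fitted effect of over 50% in size; the assay follows cell death caused by Vpr and the record does not say whether a fall means rescue or toxicity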
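Fission yeast RE007 carrying one integrated HIV-1 vpr copy, seeded at OD 0.01 in PMG+AL medium with 23 nL pinned compound. Grown 24 h at 30 degrees; viability read by BacTiter-Glo luminescence after 5 min.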
NS1 function inh: inhibitors of influenza NS1 protein function; S. cerevisiae slowed by influenza A NS1, growth recovery by OD600; AID 2326; 270,000 tested, 0.4% active; Potency, µM (doses to about 46.1 µM), for inactives: at the top dose activity, positive = more growth; active means well fitted rising curve with a large enough effect; inconclusive means small, poorly fitted or top-dose-only effect; inactive means no such curve, though single readings can be large or run the other way; also: nearly all actives have a fitted effect of over 50% in size
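OD600 was taken as the measure of yeast growth restored by compound in an NS1-expressing S. cerevisiae strain. Cells had been washed out of glucose medium and diluted 1:100 into galactose -URA medium, pH 6.0.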
2A StopGo: lowers the luciferase signal of an FMDV 2A StopGo reporter; 410,000 tested, 1.2% active; Potency, µM (titrated, usually from 57.9 µM), for inactives: at the top dose signal change, negative = less light; human cells with a luciferase reporter of 2A StopGo recoding; control for the full effect not named in the record; active = well fitted falling curve with a large enough effect; inconclusive = small, poorly fitted or top-dose-only effect; inactive = no such curve, though single readings can be large or run the other way; tested in HEK293T cells; also: % is scaled to controls: 0 for no effect and ±100 for the full control effect; nearly all actives have a fitted effect of over 45% in size; luciferase light after 4 h
Cruzain inh noDet: inhibitors of Trypanosoma cruzi cruzain without detergent; 200,000 tested, 2.3% active; Potency, µM, without a hit: max response, negative = inhibition, most hits filed as inhibitors; purified cruzain, Z-FR-AMC fluorescence, no detergent; AID 1476;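 also: plate controls were enzyme without inhibitor for no effect and buffer without enzyme for full effect; nearly all actives have a fitted effect of over 40% in size; top concentration of the series not given in the record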
Target sequence (P25779 123-467 limits assumed): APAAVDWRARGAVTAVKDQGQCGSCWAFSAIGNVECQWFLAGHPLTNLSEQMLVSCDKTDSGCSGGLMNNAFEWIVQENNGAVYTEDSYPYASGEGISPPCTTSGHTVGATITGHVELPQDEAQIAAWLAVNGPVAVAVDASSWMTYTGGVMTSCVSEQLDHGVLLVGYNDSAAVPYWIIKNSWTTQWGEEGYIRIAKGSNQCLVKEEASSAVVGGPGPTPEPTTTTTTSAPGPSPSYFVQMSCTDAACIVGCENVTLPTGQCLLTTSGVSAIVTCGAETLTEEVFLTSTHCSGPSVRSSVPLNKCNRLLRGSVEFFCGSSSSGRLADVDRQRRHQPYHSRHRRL
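Detergent-free condition (0.00005% Triton X-100) in acetate buffer pH 5.5 with DTT. 1.5 nM enzyme and compound were pre-mixed 15 min, then 2 uM Z-FR-AMC substrate added; reaction progress from fluorescence change between first and third reads (60 s).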
SARS PLpro yeast: SARS-CoV PLP inhibition in yeast. Potency, µM (top dose mostly 32.9 µM), inactives show at the top dose activity, positive = growth rescue. 330,000 tested, 0.19% active. S. cerevisiae expressing SARS-CoV PLpro, growth rescue; control for the full effect not named in the record. AID 485353; active means well fitted rising curve with a large enough effect; inconclusive means small, poorly fitted or top-dose-only effect; inactive means no such curve, though single readings can be large or run the other way; also: 0% is about no effect; nearly all actives have a fitted effect of over 55% in size; growth read by luminescence after 48 h
LASV entry inh: Lassa virus entry inhibition; Lassa virus pseudotype entry inhibition, cell reporter; control for the full effect not named in the record; Potency, µM (doses to about 37.9 µM), inactives show at the highest dose activity change, negative = inhibition, hits mostly inhibitors; 300,000 tested, 1.2% active; active means well fitted inhibition curve with a large enough effect; inconclusive means small, poorly fitted or top-dose-only effect, or effect the other way; inactive means flat fitted curve, though single readings scatter; tested in HEK293 cells; also: % is scaled to controls: 0 for no effect and ±100 for the full control effect; nearly all actives have a fitted effect of over 50% in size; luciferase read-out
Cruzain inh Det: blocks cruzain activity in presence of Triton detergent | P25779 | purified cruzain, Z-FR-AMC fluorescence, 0.01% Triton | Potency, µM, without a hit: max response, negative = inhibition, most hits filed as inhibitors | 200,000 tested, 0.43% active | AID 1478;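 also: plate controls were neutral wells for no effect and buffer without enzyme for full effect; nearly all actives have a fitted effect of over 40% in size; top concentration of the series not given in the record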
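Sodium acetate buffer (100 mM, pH 5.5) containing 5 mM DTT and 0.01% Triton X-100 hosted 1.5 nM cruzain and test compound for 15 min at room temperature. Cleavage of 2 uM Z-FR-AMC was then tracked by fluorescence.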
Marburg entry inh: Marburg virus entry inhibition; Potency, µM (highest dose often 37.8 µM), for the others: at the highest dose activity change, negative = inhibition, hits mostly inhibitors; Marburg virus pseudotyped entry inhibition, cell reporter; control for the full effect not named in the record; about a third of the inactives were read at about 46 µM; 300,000 tested, 1.8% active; active = well fitted inhibition curve with a large enough effect; inconclusive = small, poorly fitted or top-dose-only effect, or effect the other way; inactive = flat fitted curve, though single readings scatter; tested in HEK293 cells; about a fifth of its hits are not listed in these tables; also: % is scaled to controls: 0 for no effect and ±100 for the full control effect; luciferase read-out
* = called active by the depositor; ? = inconclusive; / = no result given; & = joins results of further samples; [ ] = remark or other dose. Unless noted, calls follow the shape of the dose curve; as a rule, active = well fitted curve in the direction sought with a large enough effect; inconclusive = small, poorly fitted or top-dose-only effect, or another doubt; inactive = no such curve, though single readings can be large; an effect the other way counts as inactive or inconclusive. Potency is read from the fitted curve at half-maximal effect.

SMILES	RE007 growth inh	NS1 function inh	2A StopGo	Cruzain inh noDet	SARS PLpro yeast	LASV entry inh	Cruzain inh Det	Marburg entry inh
CCOc1ccc(-n2nnnc2SCC(=O)N2CCOCC2)cc1	-2%	7%	30%	-1%	-9%	-13%	2.4%	16%
COc1cccc(CNC(=O)CCc2c(C)c3cc4c(C)coc4cc3oc2=O)c1	/	/	5%	4%	/	-20%[46.1 µM]	-7.6%	-24%[46.1 µM]
Cc1ccc(CCNC(=O)CCNS(=O)(=O)c2ccc3c(c2)oc(=O)n3C)cc1	-10%	4%	2%	8%	0%	-20%	-1.8%	12%
COc1ccc(N(CC(=O)NC2CCCCC2)C(=O)CCCC(=O)Nc2ccccn2)cc1	-7%	4%	16%	/	-6%	/	/	1%[46.1 µM]
CCN(CC)C(=O)N1CCC(NC(=O)Cc2ccccc2)CC1	3%	-6%	8%	13%	0%	?	3.5%	9%
c1ccc(Cn2c(-c3cncs3)nc3ccccc32)cc1	23%	-121%	23%	3%	-27%	-5%	-5.6%	-18%
COc1ccc(-c2cc(=O)oc(-c3cccc(C)c3)n2)cc1	3%	2%	-14%	/	1%	/	/	/
COc1ccc2c(c1)/C(=C\c1cccc(/C=C3/C(=O)Nc4ccc(OC)cc43)n1)C(=O)N2	5%	/	7.1µM*	/	/	2.8µM*	/	1.6µM*
COc1ccc2cc(CCNS(=O)(=O)c3c(C)cc(C)cc3C)c(=O)[nH]c2c1	26%	1%	0%	/	4%	-2%[46.1 µM]	/	?
Oc1ccc(NCc2cccc(OCc3ccccc3)c2)cc1	-25%	7%	10%	/	-1%	/	/	/
CCOCCOC(=O)c1cccc2c1-c1ccccc1C2=O	-4%	-10%	-28%	/	-3%	/	/	/
O=C(Nc1ccccc1C(=O)N1CCOCC1)C1CC(=O)N(c2ccc(F)cc2)C1 (stereo not drawn)	3%	10%	-2%	/	1%	2%	/	1%[46.1 µM]
C=CCNC(=O)c1onc(CSc2ccccc2)c1C(=O)O	1%	-9%	-7%	-1%	1%	/	1.6%	/
O=C1NC2(CCCCC2)C(=O)N1/N=C/c1ccccc1Br	-11%	-8%	0%	/	3%	/	/	/
O=C(C1CCN(S(=O)(=O)Cc2ccccc2)CC1)N1CCN(c2ccccc2F)CC1	/	/	-29%	?	/	1%[46.1 µM]	-3.6%	14%[46.1 µM]
CCOc1ccc(CCNC(=O)C2CC(=O)N(CCc3ccccc3)C2)cc1OCC (stereo not drawn)	-5%	-19%	7%	/	5%	0%[46.1 µM]	/	-2%[46.1 µM]
COc1ccc(NC(=O)C2=NN(c3ccccc3)C(=O)CC2)cn1	-12%	/	-12%	/	-5%	-1%	/	/
COc1cccc(Cn2c(=O)n(-c3cccc(Cl)c3C)c(=O)c3c4c(sc32)CN(C(C)=O)CC4)c1	/	/	-24%	?	/	9%[46.1 µM]	-4.4%	/
CCc1ccc(S(=O)(=O)Nc2cccc(-c3ccc(N4CCCCC4)nn3)c2)s1	/	/	37%[activator]	?	/	?	-3.2%	/
O=C(Nc1ccc(Cl)cc1)NN1CC(=O)N(c2cccc(C(F)(F)F)c2)CC1=O	13%	5%	4%	/	1%	3%[46.1 µM]	/	6%[46.1 µM]
O=C(CCN1C(=O)/C(=C/c2ccccc2Cl)SC1=S)NN1CCOCC1	4%	-7%	0%	/	-6%	/	/	/
O=C(Cc1c(O)c2ccccc2[nH]c1=O)NCc1cccc(F)c1	1%	-4%	9%	10%	2%	?	-4.4%	5%
CCNC(=S)Nc1ccc(C)c(Cl)c1	12%	-3%	20%	8%	?	27%[46.1 µM]	-4.7%	-7%[46.1 µM]
COc1ccc(C(=O)Nc2ccc(S(=O)(=O)N3CCOCC3)cc2)cc1[N+](=O)[O-]	-5%	14%	-13%	/	-4%	/	/	/
CN(C)CCCn1c(=S)[nH]c2sc3c(c2c1=O)CCCC3	-22%	-12%	7%	/	0%	-24%	/	-3%[46.1 µM]
SMILES	RE007 growth inh	NS1 function inh	2A StopGo	Cruzain inh noDet	SARS PLpro yeast	LASV entry inh	Cruzain inh Det	Marburg entry inh
O=C(NCCc1ccc(Cl)cc1)c1cccc(NC2=NC3CS(=O)(=O)CC3S2)c1 (stereo not drawn)	18%	-4%	10%	/	-8%	/	/	/
COCCNC(=O)c1onc(CSc2ccccc2F)c1C(=O)O	10%	11%	7%	-5%	4%	/	2.4%	/
Cc1nc([N+](=O)[O-])c(N2CCOCC2)n1Cc1ccccc1	0%	3%	-8%	/	1%	/	/	/
CC(/C=C/c1ccccc1)=N\NC(=O)Cn1nc(C)cc1C	-9%	12%	-6%	-2%	-6%	-11%	-3.5%	3%
CC1(C)Cc2nc3sc4c(SCC(=O)NCc5ccccc5)ncnc4c3cc2CO1	-2%[3.69 µM]	-3%	9%	13%	-2%	2%	0.7%	-4%
O=C(NC1=NCCS1)c1ccc(Cl)c(S(=O)(=O)N2CCCCCC2)c1	-6%	-3%	-9%	/	-10%	5%	/	-21%
COc1ccc(-c2noc(CCC(=O)NCCc3cccc(C)c3)n2)cc1	-4%	/	2%	/	-4%	?	/	-12%
FC(F)(F)c1ccccc1NC(=S)Nc1cccc2cnccc12	-22%	/	?	/	-2%	1%	/	-26%[46.1 µM]
CCc1[nH]nc(C(=O)N2CCCC(N3CCN(c4ccccc4C)CC3)C2)c1C (stereo not drawn)	-13%	4%	0%	/	9%	-23%	/	-22%
CCOCCOCCC(C(=O)O)P(=O)(c1ccccc1)c1ccccc1 (stereo not drawn)	1%	-9%	-20%	2%	-5%	5%	4.0%	8%
CCCN(CCC)C(=O)CC(c1ccccc1)c1ccc(C)cc1O (stereo not drawn)	13%	-6%	-20%	2%	-28%	28%[14.3 µM]	-4.8%	?
Cc1ccccc1NC(=O)c1cccc(S(=O)(=O)N2CCCCC2)c1	-17%	14%	8%	/	-8%	-6%	/	-13%[46.1 µM]
Cc1[nH]nc2ncc(C(=O)c3cc(F)ccc3O)cc12	1%	-5%	-13%	-10%	12%	-9%	3.4%	1%
NC(=O)CC(NC(=O)c1ccccc1)c1ccc(NC2CCC2)c([N+](=O)[O-])c1 (stereo not drawn)	5%	-10%	-22%	/	3%	/	/	/
Cc1cc(C(=O)O)ccc1-n1c(C)cc(/C=C2\SC(=O)NC2=O)c1C	4%	11µM*	4%	/	4%	25%[46.1 µM]	/	-5%[46.1 µM]
CCOC(=O)c1ccc(N2C(=O)Cc3ccccc3C2=O)cc1	-8%	16%	-2%	/	0%	-12%[46.1 µM]	/	?
O=C(CN1CCC(C(=O)O)CC1)Nc1ccccc1Oc1ccccc1	11%	2%	0%	/	1%	3%[46.1 µM]	/	13%[46.1 µM]
CCOc1ccccc1OCC(=O)OCC(=O)Nc1ncc(Cl)cc1Cl	-10%	-34%	-20%	-8%	-5%	8%	1.9%	11%
COc1ccc(-n2cnnc2SCC(=O)Nc2cc(C(C)(C)C)nn2-c2ccccc2)cc1	12%	-3%	0%	5%	9%	-14%	0.9%	-4%
COCCCNC(=S)N1CCN(C(=O)c2ccco2)CC1	8%	1%	-15%	-6%	-6%	1%	2.0%	16%
CCOC(=O)c1c(S(=O)(=O)NCC(=O)N(C)Cc2ccccc2)c(C)n(C)c1C	/	/	10%	-1%	/	31%[46.1 µM]	1.3%	/
O=[N+]([O-])c1cc(Br)c(O)c(/C=N/Nc2nnnn2-c2cccc3ccccc23)c1	4%	-48%	-3%	-22%	-2%	-1%	?	26%&26%
C/C(Cn1cnc([N+](=O)[O-])n1)=N\NC(=O)c1ccccc1	-4%	15%	9%	-1%	17%	14%	-0.1%	37%
CN1C[N+]([O-])=C(c2ccccc2)C1(C)C	-2%	5%	/	-7%	-1%	-1%	2.3%	4%
O=C(Nc1ccccc1Cl)Nc1ccnn1C1CCN(C(=O)c2cscn2)CC1	8%	17%	-9%	/	-2%	0%	/	?
SMILES	RE007 growth inh	NS1 function inh	2A StopGo	Cruzain inh noDet	SARS PLpro yeast	LASV entry inh	Cruzain inh Det	Marburg entry inh
CCOc1ccc(N2C(=O)CNC2=S)cc1	-8%	6%	-3%	/	-4%	-3%	/	-22%[46.1 µM]
CC(C)(C)c1nnc(NC(=O)C2CC(=O)N(CCc3ccc(F)cc3)C2)s1 (stereo not drawn)	12%	-4%	-18%	/	-1%	?	/	-23%[46.1 µM]
CCCNC(=O)CSc1nc(Cc2ccccc2)nc2ccccc12	15%	-31%	-19%	/	2%	/	/	/
COc1ccc(Cl)cc1Nc1sc(C(=O)c2ccccc2)c(N)c1C(=O)Nc1ccccc1	/	/	?	?	/	-21%[46.1 µM]	-2.6%	/
Cc1ccccc1N(C(=O)Cc1cccs1)C(C(=O)NCC1CCCO1)c1cccnc1 (stereo not drawn)	-5%	10%	66%[activator]	?	2%	?	1.0%	?
CS(=O)(=O)N(CC(=O)Nc1ccccc1C(=O)N1CCOCC1)c1cccc([N+](=O)[O-])c1	3%	4%	-21%	/	-1%	1%	/	-1%
O=C(NCc1ccc2c(c1)OCO2)c1ccc(Cl)s1	38%	/	26%	/	0%	2%	/	?
Cc1ccc(S(=O)(=O)N2CCCCC2C)cc1[N+](=O)[O-] (stereo not drawn)	0%	-1%	-19%	/	-6%	-16%	/	-29%
O=C(Cc1c(F)cccc1Cl)N1CCCC1	4%	-4%	/	-4%	5%	2%	5.3%	-6%
O=C(Cc1ccc(F)cc1)OCC(=O)N1CCN(S(=O)(=O)c2ccc(Cl)cc2)CC1	13%	/	0%	/	-2%	-9%	/	-31%
CC1CCCCN1C(=O)C12CCC(C)(/C(=N/O)C1)C2(C)C (stereo not drawn)	-10%	0%	-24%	6%	1%	-8%	4.4%	-3%
CC(C(=O)N(C)C1CCS(=O)(=O)C1)N1C(=O)/C(=C/c2ccc(F)cc2)SC1=S (stereo not drawn)	-13%	4%	-8%	/	-3%	/	/	/
CCCc1ncc(C(O)(c2ccccc2)c2ccccc2)n1C	-25%	/	-7%	/	1%	-24%[46.1 µM]	/	-4%[46.1 µM]
CC(C)C(OC(=O)c1nsc(Cl)c1Cl)C(=O)NCc1ccccc1 (stereo not drawn)	4%	-12%	-5%	/	2%	-12%[46.1 µM]	/	3%[46.1 µM]
O=C(O)[C@@H]1CCN1	/	-11%	/	-3%	/	11%	2.6%	-25%&21%&21%
COc1ccc(/C=C2\Sc3ccc(C(=O)NCC4CCCO4)cc3N(C)C2=O)cc1 (stereo not drawn)	7%	15%	?	/	-13%	?	/	?
CCOc1cc(/C=N/NC(=O)C(=O)N2CCCC2)ccc1O	3%	5%	-12%	/	1%	-2%	/	8%[46.1 µM]
COc1cc(OC)cc(C(=O)O/N=C(\N)c2ccncc2)c1	-10%	-52%	9%	-11%	-77%	14%	-1.8%	-1%

An unsorted share of the library; overall some 4.6% were active at least once.
